Sfp PPTase inh – qHTS Assay for Inhibitors of Bacillus subtilis Sfp phosphopantetheinyl transferase (PPTase); Potency, µM, without a hit: max response, negative = inhibition, hits mostly inhibitors; Biochemical Sfp PPTase activity, qHTS; 4'-phosphopantetheinyl transferase ffp (Bacillus subtilis), Q9F4F7; hit rate 3.5% among 310,000; active means well fitted inhibition curve with a large enough effect; inconclusive means small, poorly fitted or top-dose-only effect, or another doubt; inactive means no such curve, though single readings can be large or run the other way;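 further: the enzyme is Sfp with the accession as filed and its product quenches rhodamine fluorescence; potency means the concentration at half of the fitted maximal effect; 0% = enzyme reaction without inhibitor and -100% = no enzyme wells; top concentration of the series not given in the record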
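Step 1, compound plus 15 nM Sfp-PPTase, 15 min, room temperature. Step 2, add rhodamine-CoA (5 uM) and BHQ-2-YbbR (12.5 uM). Step 3, read 525/598 nm fluorescence at 0 and 30 min.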
PINK1 modulator – A Quantitative High throughput Screen to Identify Chemical Modulators of PINK1 Expression | PINK1 immunofluorescence, high-content cytometry, 24 h | Potency, µM (series often up to 76.6 µM), without a hit: at the top dose activation (PINK1 increase), actives largely listed as activators | hit rate 0.2% among 410,000; active = well fitted activation curve with a large enough effect; inconclusive = small, poorly fitted or top-dose-only effect; inactive = flat fitted curve, though single readings scatter; cell line not stated here;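 further: potency means the concentration at half of the fitted maximal effect; % of control where 0% means no effect; nearly all actives have a fitted effect of over 65% in size; a mitochondrial uncoupler was the plate control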
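PINK1 protein, normally rapidly degraded, was detected by immunofluorescence after 24 hour compound treatment of a stable cell line. Titration data (5 concentrations) came from laser-scanning cytometry, with CCCP-treated wells as controls.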
Menin MLL FP FL – qHTS Assay for Inhibitors Targeting the Menin-MLL Interaction in MLL Related Leukemias: Competition With Fluorescein Labeled MLL-derived Peptide; Fluorescence polarization, fluorescein-MLL peptide displacement from menin; FP activity change, % at 61.4 µM; 290,000 tested, under 10 active; inconclusive = falling polarisation curve, or a change in total fluorescence; inactive = total fluorescence flat and polarisation flat or rising; no compound was filed as active; the % refers to the polarisation; negative = inhibition;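 further: % of control where 0% means no effect; inhibitors lower the polarisation; unlabelled MLL peptide was the positive control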
gsp antagonist – qHTS for Antagonists of gsp, the Etiologic Mutation Responsible for Fibrous Dysplasia/McCune-Albright Syndrome: qHTS. gsp-mutant cells, cAMP HTRF, 30 min; control for the full effect not named in the record. Potency, µM (top dose mostly 76.9 µM), for the others: at the highest dose activity change, negative = inhibition, actives largely listed as inhibitors. hit rate 0.4% among 340,000; active = falling curve of any shape with a large fitted effect; inconclusive = falling curve, mostly with a smaller effect; inactive = flat or rising curve; cell line not stated here;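 further: intracellular cAMP measured with PDE inhibitor Ro 20-1724 present during compound exposure; potency means the concentration at half of the fitted maximal effect; on the % scale 0 is the no-effect control and ±100 the full control effect; nearly all actives have a fitted effect of over 65% in size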
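G418-selected cells were plated in DMEM/10% FBS for 16-24 h at 37C, then treated with compounds plus the PDE inhibitor […] (300 uM solution added) for 30 min at 37C. Intracellular cAMP was measured by HTRF after 30 min lysis at room temperature.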
gsp agonist – qHTS for Agonist of gsp, the Etiologic Mutation Responsible for Fibrous Dysplasia/McCune-Albright Syndrome: qHTS; Potency, µM (doses to about 76.9 µM), for inactives: top-dose activation (cAMP increase), most hits filed as activators; hit rate 0.13% among 340,000; gsp mutant cells, cAMP HTRF, 30 min; control for the full effect not named in the record; active = well fitted activation curve with a large enough effect; inconclusive = small, poorly fitted or top-dose-only effect, or another doubt; inactive = no such curve, though single readings can be large or run the other way; cell line not stated here;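 further: phosphodiesterase inhibitor Ro 20-1724 added with compounds to block cAMP breakdown; potency means the concentration at half of the fitted maximal effect; nearly all actives have a fitted effect of over 60% in size; about a fifth of the inactives were tested at one dose only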
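Cells stably selected in G418 were plated at 2000/well, grown 16-24 hr, then given compounds in DMSO with the PDE inhibitor […] (300 uM solution added) for 30 min at 37C; cAMP was read by HTRF.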
D2 ag – Beta-Arrestin HTS for Positive Allosteric Modulators of the Human D2 Dopamine Receptor: Agonists; D(2) dopamine receptor (Homo sapiens), P14416; DiscoveRx PathHunter D2 beta-arrestin, luminescence, 90 min; 100% = 57 uM dopamine signal; activation, % (test concentration not listed); hit rate 0.084% among 360,000; in the data active = activation above about 40%; inconclusive = about 15% to 40%; inactive = below about 15%; further: compound concentration not given in the record; the text of the record calls up to 30% inactive
Target sequence (P14416 whole entry, looked up): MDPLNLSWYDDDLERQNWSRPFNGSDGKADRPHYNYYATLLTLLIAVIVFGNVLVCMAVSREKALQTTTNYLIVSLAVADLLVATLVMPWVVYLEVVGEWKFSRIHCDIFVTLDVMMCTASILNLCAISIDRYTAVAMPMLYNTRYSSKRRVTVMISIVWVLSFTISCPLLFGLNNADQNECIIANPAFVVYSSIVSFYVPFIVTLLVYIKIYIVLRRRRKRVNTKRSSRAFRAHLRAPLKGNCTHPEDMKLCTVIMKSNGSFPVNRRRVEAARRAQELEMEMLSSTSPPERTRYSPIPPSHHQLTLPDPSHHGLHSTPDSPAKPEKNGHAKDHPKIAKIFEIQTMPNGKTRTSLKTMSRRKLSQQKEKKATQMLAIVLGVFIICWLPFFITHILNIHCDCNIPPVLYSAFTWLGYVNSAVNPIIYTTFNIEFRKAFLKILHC
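Agonist mode: compounds alone added to overnight-plated D2 PathHunter cells for 90 min at 37 C, with 57 uM final dopamine (EC100) defining full response. Beta-arrestin recruitment detected by chemiluminescent reagent, read after 1 h at ambient temperature.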
ClpP mod – qHTS Assay for Activators of ClpP; ATP-dependent Clp protease proteolytic subunit (Bacillus subtilis (strain 168)), P80244; purified B. subtilis ClpP, FRET peptide cleavage, 20 min; Potency, µM (doses to about 57.5 µM), without a hit: top-dose activity change, negative = active; hit rate 1.9% among 340,000; AID 651965, 2013; active = well fitted falling curve with a large enough effect; inconclusive = small, poorly fitted or top-dose-only effect; inactive = no such curve, though single readings can be large or run the other way; further: potency means the concentration at half of the fitted maximal effect; the source files actives as falling curves though it sought activators and does not explain the sign; nearly all actives have a fitted effect of over 65% in size; many hits overshoot -100%
Target sequence (P80244 whole entry, looked up): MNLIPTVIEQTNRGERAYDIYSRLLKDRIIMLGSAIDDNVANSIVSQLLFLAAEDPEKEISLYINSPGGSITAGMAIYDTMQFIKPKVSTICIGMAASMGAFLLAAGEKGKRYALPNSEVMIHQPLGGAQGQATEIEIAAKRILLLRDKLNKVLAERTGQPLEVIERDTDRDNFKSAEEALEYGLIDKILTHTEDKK
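ClpP 10 microg/mL final, pH 8 Tris/KCl buffer with BSA, glycerol, Tween-20; compound pinned in; FRET-FV substrate; RT 20 min; Ex320/Em430; ΔFRET vs ADEP 5.8 microM, DMSO, no enzyme.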
* hit, by the source's call; ? = inconclusive; . = not tested or not shown; [ ] = another dose, or the depositor's remark.

SMILES,Sfp PPTase inh,PINK1 modulator,Menin MLL FP FL,gsp antagonist,gsp agonist,D2 ag,ClpP mod
CCCCC(CC)C(=O)Nc1cc(C(=O)NCCC)ccc1N1CCC2(CC1)CC(c1ccccc1)=NO2 (stereo unspecified),12.3%,0.6%,-0.1,-9.4%,2.0%,6.0,-8.5%
Cc1ccc(N2CCN(c3ccc(C)cc3)C2c2cccnc2)cc1,-3.9%,2.4%[38.3 µM],-2.2,?,7.4%,-0.9,-2.6%
CCCN1CCN(CCCNC(=O)Cn2nc(C)n3c(cc4cc(OC)ccc43)c2=O)CC1,1.9%,-0.8%,.,2.5%,-1.6%,2.5,-11.2%
O=C(NC(NC(=S)Nc1ccccc1O)C(Cl)(Cl)Cl)c1ccco1 (stereo unspecified),-8.1%,-0.1%,3.1,0.0%,-16.5%,-1.3,-1.0%
Cc1c(C)c2c(OCC(=O)N[C@@H](C)C(=O)O)cc3c(c2oc1=O)CCC(C)(C)O3,18.8%,1.2%,-3.4,7.8%,-8.0%[15.4 µM],-2.1,-3.7%
CC(CNc1ccc([N+](=O)[O-])c2cccnc12)Nc1c([N+](=O)[O-])cc(C(F)(F)F)cc1[N+](=O)[O-] (stereo unspecified),2.0%,?,.,0.8%,2.2%,13.1,-5.1%
CC(=O)c1ccc(NC(=O)CSc2nc3ccccc3c(=O)n2CCCN2CCOCC2)cc1,.,3.6%,.,-17.4%,-6.0%,2.4,0.6%
COc1ccc(OC)c(S(=O)(=O)N2CCCc3ccccc32)c1,12.5%,0.7%,-3.0,-13.5%,-36.4%[inhibitor],0.5,0.4%
CCc1nc(C(N)=O)c2[nH]c(=O)n(-c3ccccc3F)c2n1,1.0%,-0.6%,-5.3,9.4%,44.4%,-1.2,3.4%
Cn1c(/C(C#N)=C(\O)c2cc(Cl)sc2Cl)nc2ccccc21,18.9%,7.6%,.,9.0%,?,-6.0,3.1%
C[C@H](NC(=O)c1ncn(Cc2ccccc2)c1C(=O)N[C@@H](C)c1ccccc1)c1ccccc1,.,2.4%,.,-13.0%,.,-5.7,-1.8%
CCOCCn1ccc2c(OCC(=O)Nc3cc(OC)ccc3OC)cccc2c1=O,.,1.4%,.,15.8µM*,8.9%[15.4 µM],2.0,2.3%
O=C(CSc1nnc(CNC(=O)c2ccco2)o1)Nc1ccccc1C(F)(F)F,4.7%,0.9%,.,12.2%,3.0%,-3.5,1.0%
Nc1nc(SCC(=O)Nc2ccc(Br)cc2Br)n[nH]1,.,2.6%,.,9.2%,-2.0%,5.5,-0.8%
O=C(Cc1n[nH]c(=O)c2ccccc12)NCc1ccc(Cl)cc1,9.3%,8.4%,-0.1,5.7%,-6.9%[15.4 µM],0.4,.
N#Cc1nc(Cc2cccc3ccccc23)oc1N1CCC(C(N)=O)CC1,-0.2%,0.1%,-3.6,7.0%,18.3%,0.9,-14.6%
COCCn1c(=O)c(-c2cn(C)c3ccccc23)nc2cnc(N3CCNCC3)nc21,3.6%,-0.2%,?,.,.,.,.
CC(Sc1nnc(-c2ccc(Cl)cc2)n1C)C(N)=O (stereo unspecified),11.1%,0.2%,2.2,8.7%,0.0%,-3.3,0.9%
O=C(NCc1ccccc1C(F)(F)F)C1CC(c2ccc(C(F)(F)F)cc2)=NO1 (stereo unspecified),19.6%,2.6%,1.1,-3.2%,-5.5%,-3.6,-2.1%
CSc1nnc(-c2ccc(S(=O)(=O)N3CCCC3)cc2)n1C,16.6%,7.5%[38.3 µM],4.2,6.1%,13.9%,-2.9,?
N/C(=N\S(=O)(=O)c1ccccc1)c1ccc([N+](=O)[O-])cc1,-0.7%,1.4%,4.9,-13.1%,-3.0%,8.0,7.3%
COc1ccc(OCC(O)Cn2ccnc2C)cc1 (stereo unspecified),-8.5%,.,2.2,8.6%,-12.2%,-2.3,1.3%
O=C(Nc1ccccc1NS(=O)(=O)c1ccc(F)cc1)C1CCCC1,9.6%,0.0%,2.5,-26.8%,1.3%[15.4 µM],0.3,1.0%
C/C(=C\c1ccccc1)CN1CCN(C(C)C)C(CCO)C1 (stereo unspecified),18.6%,-1.1%,-0.5,-11.6%,-6.1%,-8.4,.
CS(=O)(=O)N1CCC(C(=O)Nc2ccc(F)c(Cl)c2)CC1,-4.6%,0.0%,1.3,-4.7%,9.6%[15.4 µM],-1.8,-5.5%
O=C(COC(=O)c1c(Cl)cccc1Cl)NC1CCCCCCC1,.,1.9%,.,?,10.8%,-1.0,-0.5%
Cc1ccccc1N1CCN(C2CCCN(C(=O)c3cn4c(C)cccc4n3)C2)CC1 (stereo unspecified),9.4%,2.8%,.,-21.7%,2.4%,-10.0,-3.4%
Cc1ccc(C(=O)NCCC(=O)N2CCC3(CC2)NCCc2[nH]cnc23)cc1,8.4%,0.3%,.,1.4%,12.2%,1.3,.
CCSc1ccc(-c2cc(NC=O)c3ncc(-c4cc(OC)c(OC)c(OC)c4)n3c2)cc1,.,4.3%,.,.,.,-6.4,-26.2%
O=C1CS(=O)(=O)N(Cc2ccc(F)cc2)c2ccccc21,.,1.4%,.,-3.8%,.,-0.3,2.6%
CCCCCCSc1ccc([C@@H]2[C@H]3C(=O)N(CC)C(=O)[C@H]3[C@]3(C(=O)OC)CCCCN23)cc1,.,6.1%,.,4.9%,.,-0.2,-5.6%
CCC(=O)N1c2ccc(S(=O)(=O)NCc3ccccc3)cc2CC1C (stereo unspecified),21.9%,-1.0%,-0.6,0.5%,?,0.8,1.0%
COc1ccc(C(CNC(=O)CCOc2ccccc2)N(C)C)cc1 (stereo unspecified),1.2%,-0.1%[38.3 µM],-1.1,3.7%,1.9%,-3.3,-1.7%
O=C(CNc1ccccc1F)N/N=C/C1CC=CCC1 (stereo unspecified),-4.2%,-0.1%,3.2,6.9%,-5.8%[15.4 µM],2.4,.
CNC(=S)N1CCN(c2ccc(Cl)c(Cl)c2)CC1,21.2%,1.0%,4.8,-53.0%,-4.8%[15.4 µM],-1.2,1.6%
Cc1c(Cl)cccc1NC(=S)NCc1cccs1,4.2%,2.8%,1.2,-10.6%,-41.8%,-3.8,0.1%
CCOC1=C2[C@@H](CN(S(=O)(=O)c3ccc(C)cc3)[C@H]2c2cccs2)[C@H]2C(=O)N(c3ccccc3)C(=O)[C@H]2C1,.,1.9%,.,.,.,-4.2,-0.3%
Cc1ccc(NC(=O)c2cc(S(=O)(=O)c3ccccc3)ccc2Cl)cc1,12.2%,1.5%,3.9,-5.4%,4.3%,-0.9,-4.3%
S=C1NCCOCCOCCOCCNC(=S)NCCOCCOCCOCCN1,24.1%,1.4%,-2.8,8.4%,-31.8%,-1.3,-0.1%
CC(=O)Nc1nc(-c2ccc3c(c2)CCO3)cs1,11.7%,1.2%,2.1,-5.8%,-26.2%,-2.1,1.3%
O=C(NCc1cn2ccsc2n1)c1c(F)cccc1Cl,10.8%,2.1%,5.7,-2.7%,?,-7.1,-1.3%
CN(N=Cc1ccccc1O)c1ccc2ccccc2n1,.,5.2%,.,.,-28.6%,1.0,-5.1%
CCN(CC)CCP(=O)(c1ccccc1)c1ccccc1,5.2%,0.4%[38.3 µM],1.7,-1.0%,11.9%,1.9,0.1%
Cc1ccc(S(=O)(=O)N2C[C@@H](C)[C@]3(C2)[C@H](O)[C@H](OC(=O)NCc2ccco2)C[C@H]2C(=O)N(c4ccccc4)C(=O)[C@H]23)cc1,.,1.3%,.,.,13.7%,-1.6,1.9%
COc1ccc(C2CC(c3ccc(Br)cc3)Nc3nc(N)nn32)cc1 (stereo unspecified),-12.3%,-1.8%[38.3 µM],0.9,-10.1%,-33.1%[inhibitor],-2.1,-0.7%
COc1ccc(-c2cc(C(=O)NCc3ccco3)c3ccccc3n2)c(OC)c1,0.3%,0.3%,2.4,-5.5%,-6.2%,-2.8,-27.4%
O=C(O)c1ccc(NC(=S)NC(=O)c2ccc(-c3ccccc3)cc2)cc1,?,1.0%,5.2,20µM*,-22.7%,0.7,.
O=C1CC(c2ccccc2)Cc2nc(N3CCc4ccccc4C3)ncc21 (stereo unspecified),-13.1%,-2.8%,1.4,4.4%,-12.1%,-3.0,-20.3%
COc1cc(C(C(=O)NC(C)(C)C)N(C(=O)CNC(=O)c2cccs2)c2cccnc2)cc(OC)c1OC (stereo unspecified),11.2%,-1.5%,0.0,-9.1%,7.7%[15.4 µM],-5.3,-1.0%
COC(=O)c1ccc(CSc2nnnn2Cc2ccccc2)cc1,-9.2%,0.3%[38.3 µM],2.7,-17.6%,-44.8%[inhibitor],0.8,-2.4%

Other results follow.
SMILES,Sfp PPTase inh,PINK1 modulator,Menin MLL FP FL,gsp antagonist,gsp agonist,D2 ag,ClpP mod
O=C(/C=C/c1ccc(F)cc1)NCCc1ccc2c(c1)OCCO2,1.5%,7.0%,-0.2,10.4%,?,-3.1,0.7%
O=C(CCNS(=O)(=O)c1ccc(Cl)cc1)NCc1cccs1,17.8%,-1.6%,2.3,10.7%,6.1%,6.1,.
CN(C)C(CNC(=O)c1ccc2[nH]c(=O)c(=O)[nH]c2c1)c1ccco1 (stereo unspecified),.,0.9%,.,-1.9%,21.6%,-3.3,4.2%
Cc1nc(N2CCN(c3ccccc3O)CC2)c2c(-c3ccccc3)csc2n1,-7.7%,-0.3%,0.6,-15.0%,5.1%,?,.
